Screening results as filed in PubChem BioAssay.
GIRK2 activ – GIRK2 channel activation | calls only for hits at 25 µM | 0.05% of 63,000 active | P48051 | AID 1259325 | HEK293-GIRK2 thallium flux, Thallos fluorescence;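 active = among the strongest 0.2% of first-round signals and kept after retests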;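 note: first round at about 10 µM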
Target sequence (P48051 whole entry, looked up): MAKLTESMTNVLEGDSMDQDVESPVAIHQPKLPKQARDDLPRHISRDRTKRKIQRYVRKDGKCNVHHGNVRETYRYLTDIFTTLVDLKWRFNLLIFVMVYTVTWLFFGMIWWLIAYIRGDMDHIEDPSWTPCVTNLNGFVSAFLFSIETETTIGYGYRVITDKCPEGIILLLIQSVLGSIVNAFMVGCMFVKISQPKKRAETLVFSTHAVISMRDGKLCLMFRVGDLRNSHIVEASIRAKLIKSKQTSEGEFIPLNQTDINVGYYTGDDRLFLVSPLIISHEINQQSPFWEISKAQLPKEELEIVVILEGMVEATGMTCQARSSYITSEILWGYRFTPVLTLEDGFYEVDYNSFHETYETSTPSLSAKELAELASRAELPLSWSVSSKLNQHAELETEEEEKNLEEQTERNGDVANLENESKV
Calls only; i = inactive. This is a subset; count on the stated rates, not on these rows.

SMILES	GIRK2 activ
Cc1ccc(NC(=O)Cn2nc3cc(-c4ccccc4)nc(C)n3c2=O)c(C)c1	i
O=C(Cn1nc2c(N3CCOCC3)nccn2c1=O)NCCC1=CCCCC1	i
Cc1ccc(N2CC(C(=O)NCCc3nc(C4CC4)cc(C(F)(F)F)n3)CC2=O)cc1C (stereo not given)	i
O=C(CCc1nc2sc3c(c2c(=O)[nH]1)CCCCC3)NCc1cccs1	i
COc1ccc(-c2ccc(=O)n(CCNS(=O)(=O)c3cccc(C(F)(F)F)c3)n2)cc1	i
O=C(CN1C(=O)CCC1=O)N1CCC(Oc2nc3ccc(F)cc3s2)CC1	i
COc1ccc(OC)c(C(=O)c2oc3cc(NC(=O)C4CC4)ccc3c2C)c1	i
CN(C)C(=O)Cc1ccc(NS(=O)(=O)Cc2cc(F)cc(F)c2)cc1	i
CCOc1cccc(CNC(=O)C2CCN(c3nc4ccsc4c(=O)n3-c3ccccc3)CC2)c1	i
CCCC(=O)Nc1cc(C)nn1-c1nc(-c2ccc(OC)cc2)cs1	i
COc1ccc(-c2csc3c(=O)n(CC(=O)Nc4cccc(SC)c4)cnc23)cc1	i
COc1cc(-c2noc(CN3C(=O)COc4ccc(C(C)(C)C)cc43)n2)cc(OC)c1OC	i
Cc1noc(C)c1S(=O)(=O)NCCC(O)c1ccc2c(c1)OCO2 (stereo not given)	i
O=C(O)c1ccc2c(c1)CC(c1ccccc1)NC2=O (stereo not given)	i
CCCOc1cccc(C2c3c(oc4ccc(F)cc4c3=O)C(=O)N2c2ccccn2)c1 (stereo not given)	i
Cc1nn(C2CCS(=O)(=O)C2)c(C)c1N1CCN(C(=O)c2nc3ccccc3s2)CC1 (stereo not given)	i
Cc1c(C)n2c3c(=O)n(CC(=O)c4ccccc4)c(=O)n(C)c3nc2n1-c1ccccc1F	i
O=C(NCc1cccc2ccccc12)NCC1CCN(C(=O)c2ccncc2)CC1	i
Cc1ccc(NC(=O)Cn2nc(C3CCCN(S(C)(=O)=O)C3)n(C)c2=O)c(C)c1 (stereo not given)	i
O=C(NCc1ccccn1)c1csc(-n2cccc2)n1	i
COc1ccc(-c2ccncc2)cc1C(N)=O	i
CCOC(=O)c1cn(Cc2ccccc2C)nc1S(=O)(=O)N1CCCCCC1	i
Cc1ccc(OCC(O)Cn2c(N3CCCCCC3)nc3c2c(=O)[nH]c(=O)n3C)cc1C (stereo not given)	i
O=C(Nc1ccc(F)cc1)c1c(O)c2sccc2[nH]c1=O	i
O=C(N=C1SC2CS(=O)(=O)CC2N1c1ccc(Br)cc1)c1cccc([N+](=O)[O-])c1 (stereo not given)	i
Cc1cn2c3c(=O)n(C/C=C/c4ccccc4)c(=O)n(C)c3nc2n1CCN1CCOCC1	i
Cc1ccc(-n2cc(C(=O)NCc3ccco3)nn2)cc1	i
CCC(C)NC(=O)CSc1nc2cc(OC)c(OC)cc2c2nc(-c3ccc([N+](=O)[O-])cc3)nn12 (stereo not given)	i
COc1ccc(Cn2c(C)cn3c4c(=O)n(Cc5ccccc5F)c(=O)n(C)c4nc23)cc1	i
Cc1cc(C(F)(F)F)nc(SCc2nc3ccccc3[nH]2)n1	i
CCOC(=O)Cn1c(=O)c2c(nc3n2CCCN3c2ccc(Oc3ccccc3)cc2)n(C)c1=O	i
Cc1ccc(S(=O)(=O)c2c(C)cc(C)n(CC(=O)Nc3ccc4c(c3)OCCO4)c2=O)cc1	i
Cn1nc(CNS(=O)(=O)c2ccc3c(c2)OCCO3)cc1C1CC1	i
COC(=O)c1cc(O)cc(O)c1C(=O)c1c(O)cc(C)cc1O	i
COC(=O)c1cc(Nc2cccc(OC)c2)c2cccc(OC)c2n1	i
N#C/C(=C\c1c(F)cccc1Cl)c1nc2ccccc2o1	i

Random excerpt: 2 entries already listed, in no set order.
SMILES	GIRK2 activ
Cc1cc(C(F)(F)F)nc(SCc2nc3ccccc3[nH]2)n1	i
Cc1cn2c3c(=O)n(C/C=C/c4ccccc4)c(=O)n(C)c3nc2n1CCN1CCOCC1	i

Remaining list, next part:
SMILES	GIRK2 activ
CCCN1C(=O)C(C)(C)COc2cc(NC(=O)NCCc3ccccc3)ccc21	i
O=C(NCC1(c2ccc(F)cc2)CC1)C(=O)Nc1cccc(C(F)(F)F)c1	i
COC(=O)Cn1c(C2CC(=O)N(c3ccc(OC)cc3)C2)nc2ccccc21 (stereo not given)	i
COC(=O)c1ccccc1C(=O)N1CCC(CSc2ccc(OC)cc2)CC1	i
O=C(CCCn1cnc(-c2ccccc2)cc1=O)Nc1cccc2nsnc12	i
CC(=O)Nc1ccc(C(=O)NCc2nc(C)no2)cc1	i
O=C(Cn1nc(-c2cccs2)c2sc(N3CCCCC3)nc2c1=O)Nc1ccc(F)cc1F	i
O=C(NCC1CCN(C(=O)Oc2ccccc2)CC1)c1cc2ccccc2o1	i
COc1nn(C)cc1C(=O)NCC1CCN(C(=O)c2ccoc2)CC1	i
CCn1c(C2CC(=O)N(C(C)(C)C)C2)nc2ccccc21 (stereo not given)	i
O=C(c1ccc2c(c1)OCO2)N1CCN(S(=O)(=O)N2CCCCC2)CC1	i
Cn1cc(C(=O)N2CCCC2)cc(NC(=O)c2ccccc2Cl)c1=O	i
CCOC(=O)c1ccc(NC(=O)c2cc(=O)c(OCc3cccc(OC)c3)co2)cc1	i
Cc1ccc(NC(=O)Cn2ncc3c(c2=O)N(C)C(=O)CS3)c(Br)c1	i
O=C(c1cc2ccccc2o1)N1CCN(CC(O)C2CC2)CC1 (stereo not given)	i
Cc1cc(C)cc(C(=O)NC2CCN(C(=O)c3cn(-c4ccccc4)nn3)CC2)c1	i
O=C(Cc1ccc(F)cc1)N1CCC(Cn2ccnc2-c2ccccc2)CC1	i
CSc1ccc(CNC(=O)CSc2ncc(S(=O)(=O)c3cccs3)c(N)n2)cc1	i
Cc1c(Cl)cccc1NC(=O)Cn1nc(-c2ccccc2)c2sc(N3CCCCC3)nc2c1=O	i
O=C1C2N=NN(Cc3nc(-c4ccc5c(c4)OCO5)no3)C2C(=O)N1c1ccc(F)c(Cl)c1 (stereo not given)	i
CCOC(=O)Cn1c(=O)c2c(nc3n(-c4ccc(C)c(C)c4)c(-c4ccccc4)cn23)n(C)c1=O	i
CCCn1c(C(=O)N(CC(=O)OCC)Cc2ccccc2)cc2c(=O)n(C)c(=O)n(C)c21	i
Cc1nc(C)c(-c2ccc(=O)n(CCNC(=O)c3ccco3)n2)s1	i
COc1ccc(N2CCCS2(=O)=O)cc1NC(=O)NCc1cccc2ccccc12	i

The closing 7 entries of the part before come first, to join the parts:
SMILES	GIRK2 activ
CSc1ccc(CNC(=O)CSc2ncc(S(=O)(=O)c3cccs3)c(N)n2)cc1	i
Cc1c(Cl)cccc1NC(=O)Cn1nc(-c2ccccc2)c2sc(N3CCCCC3)nc2c1=O	i
O=C1C2N=NN(Cc3nc(-c4ccc5c(c4)OCO5)no3)C2C(=O)N1c1ccc(F)c(Cl)c1 (stereo not given)	i
CCOC(=O)Cn1c(=O)c2c(nc3n(-c4ccc(C)c(C)c4)c(-c4ccccc4)cn23)n(C)c1=O	i
CCCn1c(C(=O)N(CC(=O)OCC)Cc2ccccc2)cc2c(=O)n(C)c(=O)n(C)c21	i
Cc1nc(C)c(-c2ccc(=O)n(CCNC(=O)c3ccco3)n2)s1	i
COc1ccc(N2CCCS2(=O)=O)cc1NC(=O)NCc1cccc2ccccc12	i
Cn1ccnc1SCC1CCN(C(=O)c2ccc(C(F)(F)F)cc2)CC1	i
O=[N+]([O-])c1ccc(NS(=O)(=O)c2ccc3ccccc3c2)cc1	i
COc1cc(OC)cc(C(=O)N2CCOCC2CN(C)CCO)c1 (stereo not given)	i
COc1ccccc1-n1c(C)cn2c3c(=O)n(Cc4ccc(C)cc4)c(=O)n(C)c3nc12	i
O=C1CCc2cc(S(=O)(=O)N3CCCC3)cc3c2N1CCC3	i
CCCn1c(=O)c2cc(Cl)ccc2n2c(SCC(=O)Nc3ccccc3C)nnc12	i
O=C(Cc1nc2ccccc2s1)c1ccc(O)cc1O	i
CC(=O)N1CCC(Nc2ncc3cc(Oc4ccc(F)cc4F)c(=O)n(C)c3n2)CC1	i
COc1ccc(S(=O)(=O)N2CCCC2)cc1C(=O)Nc1ccc(-c2nc3ccccc3s2)cc1	i
COc1ccccc1N(CC(O)CN1CCOCC1)S(=O)(=O)c1ccccc1 (stereo not given)	i
Cc1ccccc1-n1c(=S)sc2c(=O)[nH]c(SCC(=O)Nc3ccc(F)cc3)nc21	i
CCOC(=O)c1sc2ccccc2c1S(=O)(=O)NCc1ccccc1OC	i
O=C(NCCCOC(=O)c1ccccc1Cl)c1ccncc1	i
CSc1ccc(/C=C2\C=C(CC(=O)NCc3ccc(C(=O)c4ccccc4)cc3)c3cc(F)ccc32)cc1	i
COc1ccc(-c2nn3c(COc4ccc(Cl)cc4)nnc3s2)cc1OC	i
COc1ccc(-c2cc3c(=O)[nH]nc(SCc4ccc(C)cc4)n3n2)cc1	i
O=C(Cn1ccn2nc(-c3ccccc3)cc2c1=O)NCc1ccc2c(c1)OCO2	i
Cc1cc(S(=O)(=O)N2CCCN(S(=O)(=O)c3ccc(Cl)c(C)c3)CC2)ccc1Cl	i
O=C(Cc1nnc2cc(-c3nc(C4CC4)no3)ccn12)Nc1ccc(Cl)cc1	i
COCCNC(=O)C(=O)NCC(O)c1ccoc1 (stereo not given)	i
O=C(Cn1c(-c2ccncc2)nc2ccccc21)NCCc1ccccc1	i
CCOC(CNS(=O)(=O)CCNC(=O)c1ccc(OC)cc1)OCC	i
CCOc1ccc(NC(=O)C(=O)NCCC(O)C2CC2)cc1 (stereo not given)	i
O=C(NCCCn1ccnc1-c1ccccc1)C(=O)NCc1cccs1	i

Reformatted: entries from further up.
Compound: COc1ccc(-c2ccc(=O)n(CCNS(=O)(=O)c3cccc(C(F)(F)F)c3)n2)cc1
  GIRK2 activ: i

Compound: O=C(CN1C(=O)CCC1=O)N1CCC(Oc2nc3ccc(F)cc3s2)CC1
  GIRK2 activ: i

Additional results follow.
SMILES	GIRK2 activ
COc1ccc(N2C(=O)C3N=NN(CC(=O)Nc4ccc(F)cc4F)C3C2=O)cc1Cl (stereo not given)	i
Cc1nc2ccccc2c(=O)n1-c1cccc(NC(=O)COc2ccccc2)c1	i
Cc1ccccc1-n1nncc1CN1CCN(C(=O)c2ccccc2Cl)CC1	i
COc1cccc2sc(N(C)CC(=O)NCc3nc4ccccc4[nH]3)nc12	i
COCCCNC(=O)CSc1nc(-c2cc(OC)c(OC)c(OC)c2)[nH]c1-c1ccc(F)cc1	i
Cc1ccccc1-c1csc2c(=O)[nH]c(N3CCCC(C(=O)NC4CCCC4)C3)nc12 (stereo not given)	i
COc1ccc(OC)c(-c2nnc(NC(=O)Nc3cccs3)o2)c1	i
COc1ccccc1-c1noc(Cn2c(=O)n(-c3cc(C)ccc3C)c(=O)c3ccccc32)n1	i
Cc1cc(C(=O)N2CCN(C(=O)C3CC3c3cccs3)CC2)c(C)o1 (stereo not given)	i
CCOC(=O)c1cnn(-c2ccc(C(=O)NCc3ccc(F)cc3)cn2)c1C	i
CCCCOc1ccccc1-c1cc(C(=O)Nc2cc(OC)ccc2OC)[nH]n1	i
Cc1cc(=O)n2c(-c3cccc(NC(=O)CC4CCCC4)c3)csc2n1	i
CC(C)CCNC(=O)CSc1nnc2n(CCC(=O)NC3CCCCC3)c(=O)c3ccccc3n12	i
Cc1ccc(S(=O)(=O)c2c(C)nn(C(C)(C)C)c2OC(=O)c2ccc(C)c(C)c2)cc1	i
COc1ccc(S(=O)(=O)N2CCn3cccc3C2c2ccc(Br)cc2)cc1OC (stereo not given)	i
O=C(CSc1nnc(CCc2nc3ccccc3s2)o1)N1CCN(c2ncccn2)CC1	i
CCSc1ccccc1C(=O)NCC1COC2(CCCCC2)O1 (stereo not given)	i
O=C(c1ccc(S(=O)(=O)NCc2cccs2)o1)N1CCN(c2ccccc2F)CC1	i
Cc1cc(N2CCN(c3ccccn3)CC2)n2ncc(-c3ccc(Cl)cc3)c2n1	i
Clc1ccc(COCC2CCN(Cc3cccnc3)CC2)cc1	i
COc1ccccc1CCNC(=O)c1nnn(-c2ccc(F)cc2)n1	i
CCOCCn1c(=O)c2c(nc3n(-c4cccc(C)c4C)c(C)cn23)n(C)c1=O	i
Cc1noc(C)c1C(=O)N1CCC(Oc2cnccn2)CC1	i
O=C(CSc1nnnn1-c1ccccc1)Nc1nc(-c2ccccc2)ns1	i
O=C(c1nc2ccccc2s1)N1CCC(Oc2cnccn2)CC1	i
Cc1cc(NC(=O)CSc2nnc(N3CCN(C(=O)c4cccs4)CC3)s2)no1	i
COC(=O)c1ccc2c(=O)n(CCC(=O)NC3CCCCC3)c(=S)[nH]c2c1	i
COc1cc(OC)cc(-c2noc(CSc3nc4ccsc4c(=O)n3CC(C)C)n2)c1	i
O=S(=O)(CCOc1ccccc1)N1CCC(c2ccsc2)CC1	i
O=C(c1nnn(-c2ccccc2)c1-c1ccccn1)N1CCCC1c1cccnc1 (stereo not given)	i
Cn1cc(-c2ccco2)nc1CCNC(=O)C1(c2ccc(Cl)cc2)CCCC1	i
c1cnc(N2CC[N+]3(CCCC3)CC2)nc1	i
COC(=O)Nc1nc2c(s1)CN(CC(=O)NCc1ccc(F)cc1)CC2	i
CCOc1ccccc1NC(=O)CSC1=NS(=O)(=O)c2ccccc2N1	i
O=C(NCCC(O)C1CC1)c1cccc(Br)c1 (stereo not given)	i
C#CCCCCCCCCCNC(=O)Oc1cccc(-c2cccc(C(N)=O)c2)c1	i
COc1ccc(-c2cc3c(SCC(=O)Nc4ccc5c(c4)OCCO5)nccn3n2)cc1	i
O=C(Cn1ccn2nc(-c3ccccc3)cc2c1=O)NCc1cccs1	i
NS(=O)(=O)c1ccc(CCNc2ncc3c(=O)n(C4CCCC4)c(=O)[nH]c3n2)cc1	i
Cc1cccc(C)c1NC(=O)c1nnn(-c2ccc3noc(-c4ccc(Cl)cc4)c3c2)c1C	i
COc1ccc(OCC(=O)Nc2ccc3c(c2)CCCN3S(=O)(=O)c2ccc(C)cc2)cc1	i
Cc1ccc(S(=O)(=O)N(Cc2ccc(C(F)(F)F)cc2)C(=O)N2CCN(C)CC2)cc1	i
CC1(COc2ccc(CC3SC(=O)NC3=O)cc2)CCCCC1 (stereo not given)	i
